# Screening data deposited in PubChem by National Center for Advancing Translational Sciences (NCATS).
# ClpP mod – qHTS Assay for Activators of ClpP. Potency, µM (doses to about 57.5 µM), inactives show at the top dose activity change, negative = active. ATP-dependent Clp protease proteolytic subunit (Bacillus subtilis (strain 168)), P80244. purified B. subtilis ClpP, FRET peptide cleavage, 20 min. AID 651965, 2013. hit rate 1.9% among 340,000; active = well fitted falling curve with a large enough effect; inconclusive = small, poorly fitted or top-dose-only effect; inactive = no such curve, though single readings can be large or run the other way; further: potency means the concentration at half of the fitted maximal effect; the source files actives as falling curves though it sought activators and does not explain the sign; nearly all actives have a fitted effect of over 65% in size; many hits overshoot -100%
# Target sequence (P80244 whole entry, looked up): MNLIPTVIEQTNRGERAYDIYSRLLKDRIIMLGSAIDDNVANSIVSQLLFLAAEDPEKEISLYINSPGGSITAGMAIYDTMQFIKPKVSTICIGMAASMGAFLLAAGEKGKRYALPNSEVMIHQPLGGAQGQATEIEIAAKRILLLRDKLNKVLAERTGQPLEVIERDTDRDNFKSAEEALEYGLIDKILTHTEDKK
#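 FRET quenching reversal measured ClpP activation: 10 microg/mL B. subtilis ClpP at pH 8 with the FRET-FV decapeptide, read at 430 nm after 320 nm excitation. The 20-min minus 0-min signal was scaled between DMSO/no-enzyme wells and ADEP (5.8 microM final).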
# D2 PAM – positive allosteric modulators of human D2 dopamine receptor | P14416 | DiscoveRx D2 beta-arrestin cells, luminescence, 90 min; 100% = 57 uM dopamine signal | potentiation, % (no concentration beside the values) | hit rate 0.23% among 360,000 | AID 624464; active = potentiation of 50% or more; inconclusive = 30% to 50%; inactive = 30% or less;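 further: compound concentration not given in the record; tested on top of an EC20 dose of dopamine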
# Target sequence (P14416 whole entry, looked up): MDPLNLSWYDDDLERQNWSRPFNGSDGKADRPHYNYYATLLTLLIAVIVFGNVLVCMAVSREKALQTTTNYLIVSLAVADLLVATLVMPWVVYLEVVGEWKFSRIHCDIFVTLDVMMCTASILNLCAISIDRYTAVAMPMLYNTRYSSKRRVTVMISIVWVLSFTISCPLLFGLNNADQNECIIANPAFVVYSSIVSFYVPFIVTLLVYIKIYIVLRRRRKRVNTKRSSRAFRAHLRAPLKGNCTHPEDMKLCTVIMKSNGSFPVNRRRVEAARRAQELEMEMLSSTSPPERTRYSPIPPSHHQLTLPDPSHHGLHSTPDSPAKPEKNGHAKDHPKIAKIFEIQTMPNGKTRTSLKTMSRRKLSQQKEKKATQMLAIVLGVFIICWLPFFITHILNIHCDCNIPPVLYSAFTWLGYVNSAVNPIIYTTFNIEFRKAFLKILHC
#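 PathHunter D2 cells, attached overnight at 37 deg C, received compound in DMSO plus dopamine at EC20 (50 nM final) for 90 min at 37 deg C. Beta-arrestin recruitment was read as luminescence after 1 h with detection reagent at ambient temperature.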
# gsp antag – antagonizes gsp, the McCune-Albright syndrome mutation; gsp-mutant cells, cAMP HTRF, 30 min; control for the full effect not named in the record; Potency, µM (top dose mostly 76.9 µM), for the others: top-dose activity change, negative = inhibition, hits mostly inhibitors; hit rate 0.4% among 340,000; active = falling curve of any shape with a large fitted effect; inconclusive = falling curve, mostly with a smaller effect; inactive = flat or rising curve; cell line not stated here;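 further: intracellular cAMP measured with PDE inhibitor Ro 20-1724 present during compound exposure; potency means the concentration at half of the fitted maximal effect; on the % scale 0 is the no-effect control and ±100 the full control effect; nearly all actives have a fitted effect of over 65% in size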
#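 G418-selected cells were plated in DMEM/10% FBS for 16-24 h at 37C, then treated with compounds plus the PDE inhibitor […] (300 uM solution added) for 30 min at 37C. Intracellular cAMP was measured by HTRF after 30 min lysis at room temperature.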
# gsp ag – agonists of gsp mutant (McCune-Albright syndrome); Potency, µM (doses to about 76.9 µM), inactives show at the highest dose activation (cAMP increase), hits mostly activators; hit rate 0.13% among 340,000; gsp mutant cells, cAMP HTRF, 30 min; control for the full effect not named in the record; AID 624287; active = well fitted activation curve with a large enough effect; inconclusive = small, poorly fitted or top-dose-only effect, or another doubt; inactive = no such curve, though single readings can be large or run the other way; cell line not stated here;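 further: phosphodiesterase inhibitor Ro 20-1724 added with compounds to block cAMP breakdown; potency means the concentration at half of the fitted maximal effect; nearly all actives have a fitted effect of over 60% in size; about a fifth of the inactives were tested at one dose only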
#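 Cells in DMEM/10% FBS with G418 were pretreated with compounds in DMSO plus […] (300 uM stock) for 30 min at 37C. cAMP was measured by HTRF (cAMP-d2 plus anti-cAMP antibody-K) after 30 min at room temperature.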
# Menin MLL FP FL – menin-MLL binding inhibition, fluorescein peptide | Fluorescence polarization, fluorescein-MLL peptide displacement from menin | FP activity change, % at 61.4 µM | 290,000 tested, under 10 active | AID 1766; inconclusive = falling polarisation curve, or a change in total fluorescence; inactive = total fluorescence flat and polarisation flat or rising; no compound was filed as active; the % refers to the polarisation; negative = inhibition;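 further: % of control where 0% means no effect; inhibitors lower the polarisation; unlabelled MLL peptide was the positive control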
# TRPV1 potentiator – potentiators of human vanilloid receptor 1 (TRPV1); hit rate 0.02% among 320,000; Q8NER1; potentiation, % at 8.33 µM; TRPV1-expressing cells, Fluo-8 calcium influx, capsaicin EC20 potentiation; host cell line not named in the record; control for the full effect not named in the record; active means potentiation above 80%; inconclusive means 30% to 80%; inactive means below 30%; further: 0% is about no effect
#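 Fluo-8 calcium influx in TRPV1-expressing cells, kinetic read (ex 480/em 520 nm). Compound added and read 3 min for agonist activity, followed by capsaicin at EC20 final and 2 min further read for enhancement.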
# Sfp inh – Sfp phosphopantetheinyl transferase inhibition. Q9F4F7. Biochemical Sfp PPTase activity, qHTS. Potency, µM, for the others: max response, negative = inhibition, hits mostly inhibitors. hit rate 3.5% among 310,000; active means well fitted inhibition curve with a large enough effect; inconclusive means small, poorly fitted or top-dose-only effect, or another doubt; inactive means no such curve, though single readings can be large or run the other way;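 further: the enzyme is Sfp with the accession as filed and its product quenches rhodamine fluorescence; potency means the concentration at half of the fitted maximal effect; 0% = enzyme reaction without inhibitor and -100% = no enzyme wells; top concentration of the series not given in the record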
#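 Fluorescence-quenching assay with 15 nM Sfp, 5 uM rhodamine-CoA and 12.5 uM BHQ-2-labelled ybbR peptide in pH 7.6 Hepes/MgCl2 buffer. Enzyme was pre-incubated with compound for 15 min at room temperature. Rate was taken from the 30-min fluorescence change (525/598 nm).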
# Starred values were filed as active, the others as inactive; u = inconclusive; x = no result given; & = joins results of further samples; [ ] = remark or other dose.
entry | SMILES | ClpP mod | D2 PAM | gsp antag | gsp ag | Menin MLL FP FL | TRPV1 potentiator | Sfp inh
1 | Cc1onc(-c2ccccc2)c1C(=O)N/N=C/c1ccccc1OC(C)C | -4.2% | 1 | -28% | 26% | x | -26 | 19%
2 | Cc1cc(C)nc(NC(=O)c2c(-c3c(Cl)cccc3Cl)noc2C)n1 | -1.3% | -7 | 1% | -10% | 1.3 | -10 | -22%
3 | N#CNC(=Nc1ccccc1F)SCc1ccc(C(=O)O)cc1 | x | 0 | -4% | 19% | 0.2 | 14 | 13%
4 | CSc1nc(Cl)cc(Nc2ccccc2N)n1 | x | -5 | 12% | 2%[15.4 µM] | 2.8 | 0 | 22%
5 | O=[N+]([O-])c1ccccc1-c1ccc(C(=S)N2CCCC2)o1 | x | -6 | -5% | -17% | u | 30 | 7.9µM*
6 | COc1ccc(N=c2oc3ccc(OC)cc3cc2-c2nc3ccccc3[nH]2)cc1 | 1.9% | -4 | 1% | -15% | 3.3 | -8 | u
7 | O=S(=O)(Nc1cccc(-n2cnnn2)c1)c1cnc(Cl)c(Cl)c1 | 0.5% | -9 | 7% | -6% | x | 2 | 10%
8 | COc1cc2cc(C(N)=O)c(N)nc2cc1OC | 52% | -4 | 2% | u | 0.7 | -7 | -3%
9 | O=S(=O)(Cc1ccc(Cl)cc1)N1CCCC1 | 1.0% | -13 | -9% | 1% | 4.3 | -3 | 17%
10 | CCOC(=O)/C=C/C(=O)OCC(=O)N1CCN(C(=O)c2ccco2)CC1 | 1.5% | 10 | 3% | -2% | x | 3 | -11%
11 | CCCCC(=O)NNC(=S)NCc1ccccc1 | x | -3 | 16% | -16% | -3.9 | 23 | 27%
12 | O=C(NC1CC1)c1cccc(Br)c1 | 0.5% | -1 | 18% | -15% | 1.2 | -5 | 9%

# One compound at a time, from the list above. Order of screens: ClpP mod	D2 PAM	gsp antag	gsp ag	Menin MLL FP FL	TRPV1 potentiator	Sfp inh
# Profile of CCCCC(=O)NNC(=S)NCc1ccccc1 → x	-3	16%	-16%	-3.9	23	27%
# Profile of O=S(=O)(Nc1cccc(-n2cnnn2)c1)c1cnc(Cl)c(Cl)c1 → 0.5%	-9	7%	-6%	x	2	10%

# 3 of the entries above in order of the Menin MLL FP FL value, largest number first.
No.	Structure	Menin MLL FP FL
4	CSc1nc(Cl)cc(Nc2ccccc2N)n1	2.8
12	O=C(NC1CC1)c1cccc(Br)c1	1.2
8	COc1cc2cc(C(N)=O)c(N)nc2cc1OC	0.7

# Going on with the list:
entry | SMILES | ClpP mod | D2 PAM | gsp antag | gsp ag | Menin MLL FP FL | TRPV1 potentiator | Sfp inh
13 | Cn1c(SCC(=O)Nc2ccc(N3CCOCC3)cc2)nnc1-c1ccccc1F | 0.2% | -10 | -17% | 8%[15.4 µM] | 2.0 | -6 | 9%
14 | CC(=O)c1cccc(NC(=O)c2cc(C(C)C)on2)c1 | -0.4% | -8 | 0% | -1% | -3.2 | x | 27%
15 | COc1ccc(S(=O)(=O)Nc2cccc3c2O[C@H](CN(C)Cc2ccc(-c4ccccc4)cc2)[C@@H](C)CN([C@H](C)CO)C3=O)cc1 | -3.5% | 0 | -21% | x | x | x | x
16 | CC(C)(O)c1nnn(-c2ccccc2)c1C(F)(F)F | -1.3% | -4 | 9% | 5% | 0.3 | 2 | -7%
17 | CCC1CN(C(=O)N2CCC(C(=O)NCc3cccc(OC)c3OC)CC2)c2cc(C)ccc2O1 (stereo unspecified) | -0.1%&12% | 4 | -7% | -3% | x | -6 | 3%
18 | COc1ccc(OC)c(NC(=O)Nc2cccc3ccccc23)c1 | u | -15 | -6% | -38%[inhibitor] | 0.5 | 4 | -4%
19 | O=S(=O)(Nc1ncccn1)c1ccc(NC(=S)NCCc2ccc(Cl)cc2)cc1 | x | -7 | -19% | 5% | 5.2 | -5 | 12%
20 | CCCCC(NC(C)=O)c1nc2ccccc2n1CCC (stereo unspecified) | -1.7% | -8 | -2% | -36%[inhibitor] | 2.8 | 6 | 0%
21 | COc1cccc(NC(=O)Nc2nc(-c3ccc(OC)c(OC)c3)cs2)c1 | -0.6% | 29 | -19% | u | -0.8 | 11 | 2%
22 | CCOc1cc(C(=S)N2CCOCC2)ccc1OC(=O)c1cccc(C)c1 | 0.1% | 9 | u | -41%[inhibitor] | 2.6 | -3 | -3%
23 | CCOc1ccccc1Oc1c(C)oc2c(CN3CCN(C)CC3)c(O)ccc2c1=O | u | -3 | 2% | 6% | -1.7 | 14 | 20%
24 | COc1ccc(C(=O)Nc2ccccc2C(=O)N(Cc2ccco2)C(C(N)=O)C(C)C)cc1 (stereo unspecified) | -9.1% | -11 | 0% | 10% | -0.3 | 10 | u

# Only D2 PAM, for 3 of the compounds above:
nr | SMILES | D2 PAM
16 | CC(C)(O)c1nnn(-c2ccccc2)c1C(F)(F)F | -4
17 | CCC1CN(C(=O)N2CCC(C(=O)NCc3cccc(OC)c3OC)CC2)c2cc(C)ccc2O1 (stereo unspecified) | 4
18 | COc1ccc(OC)c(NC(=O)Nc2cccc3ccccc23)c1 | -15

# Values in list order from the list.
# Compounds 14–23 in ClpP mod, in turn: -0.4%, -3.5%, -1.3%, -0.1%&12%, u, x, -1.7%, -0.6%, 0.1%, u
# Compounds 14–23 in Sfp inh, in turn: 27%, x, -7%, 3%, -4%, 12%, 0%, 2%, -3%, 20%

# The results go on:
entry | SMILES | ClpP mod | D2 PAM | gsp antag | gsp ag | Menin MLL FP FL | TRPV1 potentiator | Sfp inh
25 | O=C1CCC(=O)N1OCCCCOc1ccccc1 | 0.6% | 6 | 1% | 10% | 2.2 | -4 | 7%
26 | Cc1ccc(C(=O)N/C(=C\c2cccs2)C(=O)NCC2CCCO2)cc1C (stereo unspecified) | 1.1% | -22 | -2% | 25% | 3.7 | 7 | -4%
27 | COc1cccc(NC(=O)CN(C)CC(=O)NCc2ccc(F)cc2)c1 | x | -12 | -8% | -14% | x | x | x
28 | COc1ccccc1N1CCN(CCOc2c(OC)cccc2OC)CC1 | -3.4% | -36 | 12% | -1% | 1.9 | u | 6%
29 | Cc1ccccc1NC(=O)C1CCN(S(=O)(=O)c2cccc3nonc23)CC1 | 0.3% | 0 | 5% | -12% | -0.9 | -5 | -3%
30 | Cc1cc(=O)[nH]c2c1cnn2Cc1ccccc1 | 1.5% | -4 | -13% | -39%[inhibitor] | -1.4 | 3 | 15%
31 | O=C(N=Nc1c(O)[nH]c2ccccc12)c1ccco1 | x | -10 | -16% | 5%[15.4 µM] | 2.4 | -4 | -7%
32 | CCOC(=O)N1CCC(N2C(=O)c3ccccc3C2Nc2cc(Cl)c(OC)cc2OC)CC1 (stereo unspecified) | 0.2% | -3 | -24% | -5% | -1.8 | 12 | 3%
33 | CSc1nc2nccc(-c3ccc(Cl)cc3)n2n1 | -20% | 1 | 2% | -13% | 1.9 | 24 | 6%
34 | Cc1cc(NC(=O)CSCC(=O)N(C)Cc2cccc(Cl)c2)no1 | -1.9% | -2 | 9% | u | x | -29 | x
35 | CC(OC(=O)/C=C/c1cccc(C(F)(F)F)c1)C(=O)NC1CCCCC1C (stereo unspecified) | x | 2 | 5% | 10%[15.4 µM] | x | 2 | x
36 | CC(C)Nc1nnc(SCC(=O)/C=C2\N(C)c3ccccc3C2(C)C)s1 | -2.4% | -8 | -10% | 14% | 16 | 1 | -15%
